# Screens from PubChem BioAssay.
# YopH PTP inh – blocks Yersinia enterocolitica YopH tyrosine phosphatase | fluorescence Ex485/Em525 | inhibition, %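 (about 10 µM by stock and volumes)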 | actives 0.16% (n = 140,000) | AID 898;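 active means inhibition of 50% or more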;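 further: controls were vehicle for no effect and minimum signal wells for full effect; inactives centre near -20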
# Mtb growth – M. tuberculosis H37Rv growth inhibitors, H37Rv strain (AID 1626) | M. tuberculosis H37Rv growth inhibition; higher % means a stronger effect | inhibition, % at 10 µM, or IC50 in µM where a hit was titrated | actives 0.95% (n = 220,000);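 active means confirmed in a dose series; inconclusive means inhibition above 80% but not taken into the dose series; inactive means below 80% or under 30% at every dose of the series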;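 further: bacteria incubated seven days before Alamar blue readout; 0% = bacteria only wells and 100% = bacteria with antibiotic wells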
# RecA intein inh – blocks M. tuberculosis RecA intein splicing. inhibition, %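 (about 9 µM by stock and volumes)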. P9WHJ3. actives 0.75% (n = 290,000). cell-free RecA intein splicing, fluorescence. AID 2221; in the data active means inhibition above about 30%; inconclusive means no clear call, values can overlap the other calls;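 further: 0% = vehicle wells and 100% = reference inhibitor control wells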
# Target sequence (P9WHJ3 whole entry, looked up): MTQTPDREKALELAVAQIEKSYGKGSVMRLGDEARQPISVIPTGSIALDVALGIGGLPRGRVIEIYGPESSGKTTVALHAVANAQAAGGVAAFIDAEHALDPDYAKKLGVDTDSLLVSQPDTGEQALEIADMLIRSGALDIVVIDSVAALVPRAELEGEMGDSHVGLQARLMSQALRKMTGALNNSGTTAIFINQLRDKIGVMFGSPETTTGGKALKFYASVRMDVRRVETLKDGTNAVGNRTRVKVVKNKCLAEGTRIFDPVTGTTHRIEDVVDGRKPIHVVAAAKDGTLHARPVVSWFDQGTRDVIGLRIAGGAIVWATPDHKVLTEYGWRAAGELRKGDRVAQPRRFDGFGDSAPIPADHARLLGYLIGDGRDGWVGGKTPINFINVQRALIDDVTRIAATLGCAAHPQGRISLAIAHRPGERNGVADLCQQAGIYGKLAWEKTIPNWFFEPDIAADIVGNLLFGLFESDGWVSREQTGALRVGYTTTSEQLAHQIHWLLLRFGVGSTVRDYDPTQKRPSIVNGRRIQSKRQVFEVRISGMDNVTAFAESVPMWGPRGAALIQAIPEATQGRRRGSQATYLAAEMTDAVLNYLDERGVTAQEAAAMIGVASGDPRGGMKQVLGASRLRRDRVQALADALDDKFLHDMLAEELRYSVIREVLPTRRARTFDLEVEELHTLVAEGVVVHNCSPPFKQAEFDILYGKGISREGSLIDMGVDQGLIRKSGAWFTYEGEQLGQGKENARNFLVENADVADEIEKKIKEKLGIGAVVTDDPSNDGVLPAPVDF
# Mtb betalactam – beta-lactam sensitization of Mtb H37Rv. M. tuberculosis H37Rv growth with meropenem, percent inhibition; hits of this screen are not shown here. inhibition, % at 25 µM. actives 0.27% (n = 330,000);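 active means about 74% or more and at least 40 points above the plate without the antibiotic, then above 30% in a dose series; inconclusive means first-round hits that could not be retested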;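 further: growth measured after seven days incubation then overnight dye step; 0% = bacteria only wells and 100% = bacteria with antibiotic; twin plates without the antibiotic show which effects depend on it; some results filed as inactive read as strong as hits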
# Arbovirus anti – blocks arbovirus infection; arbovirus infection cell-based antiviral screen; inhibition, % at 10 µM; actives 0.37% (n = 200,000);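 active means inhibition from about 30%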;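 further: bluetongue infection of BSR cells; cell survival read as ATP light after 72 h; 0% = infected wells without compound and 100% = uninfected wells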
# Arbovirus anti repeat – second read-out of Arbovirus anti, no call of its own (marks repeat the call); inhibition, %; measured here: 10K subset replicate screen; many hits read low in the repeat;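 first of two repeat runs on a subset; 0% = infected and 100% = uninfected wells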
# Active calls of the source: *; ? = inconclusive; . = no result given; & = joins results of further samples.
SMILES,YopH PTP inh,Mtb growth,RecA intein inh,Mtb betalactam,Arbovirus anti,others
O=C(Nc1ncc([N+](=O)[O-])s1)c1cccs1,.,.,28&23,-3&1,.,
Cc1ccc(C2(O)CC(C)N(C)CC2C)cc1 (stereo not drawn),-16,-2%,-5.4,-12,9,
Cc1cc(NC(=O)COC(=O)c2cc(S(=O)(=O)N3CCOCC3)ccc2N2CCCCC2)no1,-15,8%,-2.4,-10,4,
COc1ccc(C2C(C(=O)NCCN3CCOCC3)c3ccccc3C(=O)N2C2CCCCC2)cc1 (stereo not drawn),-31,-1%,-1.5,-3,-9,
CCOc1ccc(-c2c(C(=O)N/N=C(\C)c3cccnc3)nnn2-c2nonc2N)cc1,.,.,-0.8,7,.,
COCCN(CC1CCCN(C2Cc3ccccc3C2)C1)C(=O)CCC(F)(F)F (stereo not drawn),.,.,3.1,2,.,
Cc1ccc(-c2cc(C(=O)NCc3cccnc3)no2)cc1,-27,4%,2.1,3,0,
O=c1c2ccccc2cnn1Cc1n[nH]c(=S)n1-c1ccc(Cl)cc1,-41,-1%,0.2,3,-4,
CCOC(=O)NC(=O)C(=CNNc1ncc(C(F)(F)F)cc1Cl)C(=O)NC(=O)OCC,.,5%,-4.8,-6,3,
COc1ccc(/C=C2\SC(=S)N(CCCC(=O)Nc3cc(C)on3)C2=O)cc1OC,.,.,-0.5,2,.,
O=c1c2ccccc2sn1-c1nccs1,.,?,0.0,.,2,
CCOc1cc(-c2noc(-c3ccncc3)n2)cc(Br)c1OC,-30,8%,-0.1,94,-7,
Cc1cccc(N2CC(C(=O)Nc3ccc4c(c3)OCCO4)CC2=O)c1C (stereo not drawn),.,.,1.2,4,.,
O=C(Nc1ccc(F)c(Cl)c1)C1CCN(S(=O)(=O)c2cccnc2)CC1,-34,2%,2.3,4,-2,
COc1ccccc1NC(=S)N(Cc1ccccn1)Cc1ccccc1Cl,.,-3%,6.4,0,3,
COc1ccccc1C(=O)OCCNC(=O)Cn1cnc2c1c(=O)n(C)c(=O)n2C,.,1%,-3.8,-6,5,
COc1ccc(NC(C)=O)cc1NC(=O)CSc1nnc(-c2ccncc2)n1C,-66,-2%,2.3,-19,-2,Arbovirus anti repeat=-1
O=C(Nc1ccc2[nH]c(=O)[nH]c2c1)c1c(F)c(F)c(F)c(F)c1F,.,10%,-2.7,7,-7,
COc1ccc(OC2CCN(S(=O)(=O)c3ccc(OC)cc3)CC2)cc1,.,.,4.9,4,.,
O=c1c2ccccc2nc(-c2ccccc2)n1Cc1ccccc1,-19,1%,4.4,-10,0,
COc1cc(/C=C/C(=O)OCC(=O)N2CCN(S(=O)(=O)c3ccc(C)cc3C)CC2)ccc1O,-27,5%,5.2,6,5,
Cc1oc(-c2ccccc2)nc1C(=O)O,.,-3%,0.7,-6,4,
CCc1nnc(NS(=O)(=O)c2ccc(N/C=C\C(=O)c3cccc4ccccc34)cc2)s1,-12,4%,0.3,16,20,
CCC(=O)Nc1ccc(-c2ccc(NC(=O)CC)c(OC)c2)cc1OC,.,8%,2.5,-5,-10,
CCn1cc(Br)c(C(=O)Nc2ccc(OC)cc2)n1,-5,1%,0.3,1,0,
O=S(=O)(NC1CCCCC1NCc1ccco1)c1ccccc1 (stereo not drawn),-12,0%,4.1,6,11,Arbovirus anti repeat=-3
CCC(=O)NC(c1ccccc1OC)c1ccc2cccnc2c1O (stereo not drawn),-9,-9%,-1.9,-2,-27,
CC1(C)COCN1S(=O)(=O)c1ccc(C(=O)Nc2nnc(-c3ccc(Cl)s3)o2)cc1,-19,.,2.0,96,-13,
CC(Oc1ccc2ccc(=O)oc2c1)C(=O)N1CCOCC1 (stereo not drawn),.,.,-0.3,-12,.,
COc1cccc(C(=O)Nc2ccc(-c3nnc(-c4ccco4)o3)cc2)c1,-46,-1%,0.7,36,6,
CCC(C)N(C(=O)CSc1nnc(COc2ccccc2F)n1N)C1CCS(=O)(=O)C1 (stereo not drawn),.,.,-0.7,-5,.,
OC1CCCN(c2ncnc3c2nnn3Cc2c(F)cccc2Cl)C1 (stereo not drawn),.,-5%,-0.4,7,-3,
COc1ccc(N2C(=O)CC(Sc3nnnn3-c3ccc(F)cc3)C2=O)cc1 (stereo not drawn),.,2%,5.0,-4,2,
O=c1cc(CO)oc(C(Nc2ccccn2)c2ccc(C(F)(F)F)cc2)c1O (stereo not drawn),-34,-8%,-6.7,-14,-5,
O=C(COc1cccc2c1CCN(Cc1ccccc1F)C2=O)N1CCOCC1,.,-1%,-0.6,2,-17,
CCOC(=O)C1CCN(Cc2cc(=O)n3c(-c4ccccc4)csc3n2)CC1,.,1%,0.8,0,11,
O=C(c1ccncc1)N1CCCC(N2CCN(c3ccc(F)cc3)CC2)C1 (stereo not drawn),.,.,0.0,-2,.,
COCCCNC(=O)CN(C1CCCCC1)S(=O)(=O)c1ccc(C)cc1,-27,-13%,.,6,4,
Cc1ccc(-c2[nH]c3ccccc3c2SCCNC(=O)c2ccc(S(=O)(=O)N3CCOCC3)cc2)cc1,-25,15%,-3.3,-7,-13,
Cc1cc(C)n(CC(=O)N/N=C/c2ccc3c(c2)OCO3)n1,-11,0%,0.1,-10,-1,
Cc1cc(C)cc(N=c2c([N+](=O)[O-])nn(-c3cccc(Cl)c3)n2O)c1,2,4.9µM*,1.9,100,-9,
COc1ccccc1-n1c(N)c(C(=O)NCC2CCCO2)c2nc3ccccc3nc21 (stereo not drawn),-30,-2%,-203,2,5,
Cc1ccc(-n2c(SCc3cc(=O)n4ccsc4n3)nnc2-c2cccnc2)c(C)c1,1,.,1.4,5,4,
CC1CCc2c(sc3nc(CSc4nnnn4C)[nH]c(=O)c23)C1 (stereo not drawn),.,43%,0.2,78,.,
O=C(c1cccc(C(F)(F)F)c1)C1CCCN(C(=O)CCCn2cncn2)C1 (stereo not drawn),.,4%,-0.3,1,2,
Cc1ccc2[nH]c3c(=O)n(CC(=O)NCCCN(C)Cc4ccccc4)ncc3c2c1,.,.,-3.6,-3,.,
COc1ccc(-c2nn(C)c3sc(C(=O)NCCN(C)C)cc23)cc1OC,.,.,3.4,-2,.,
CC(=O)N1N=C(c2ccccc2)CC1c1cn(Cc2ccccc2)c2ccccc12 (stereo not drawn),-16,9%,13,-9,9,
CCc1nnc(NC(=O)c2ccc(S(=O)(=O)NCC(C)C)cc2)s1,-24,-11%,-1.4,7,-9,
COc1ccc(C)cc1NC(=O)CCS(=O)(=O)c1ccc2c(c1)oc(=O)n2C,.,.,1.8,1,.,
COc1ccc(-c2cc(-c3ccccc3)no2)cc1,.,.,2.0,30,.,
N#Cc1cc([N+](=O)[O-])ccc1NCCCn1ccnc1,.,.,0.8,1,.,
CNc1nc(OCC(F)(F)F)nc(N2CCOCC2)n1,-20,-2%,-2.8,-1,2,
Cc1cccc(N2C(=O)C3CCC(c4ccccc4)CC3C2=O)c1 (stereo not drawn),-31,-3%,2.8,2,7,
COc1ccc(OC)c(C2CC(=O)C(C)C(c3cc(OC)ccc3OC)N2)c1 (stereo not drawn),-23,-5%,0.3,-4,-2,
COc1ccccc1C(=O)NC(=O)COC(=O)c1nc2nc(C)cc(C)n2n1,.,.,-1.4,-10,.,
CCOc1ccc(CCNC(=O)CN2C(=O)NC(CCSC)C2=O)cc1OCC (stereo not drawn),.,2%,.,0,4,
COCCn1nc2cc(C(=O)NCc3cc(C(F)(F)F)cc(C(F)(F)F)c3)ccc2c1OC,-1,-6%,-1.3,6,4,
CCOc1ccc(CC2(CCc3ccncc3)C(=O)NC(=O)NC2=O)cc1,.,-2%,6.5,0,-2,
CC1=C(C(=O)OC(C)C)C2(O)C(=O)c3ccccc3C2(O)N1 (stereo not drawn),37,-3%,32*,-6,-11,
# The list continues.
SMILES,YopH PTP inh,Mtb growth,RecA intein inh,Mtb betalactam,Arbovirus anti,others
CCC(=O)Nc1ccc(S(=O)(=O)Nc2cc(C)on2)cc1,-14,7%,-2.0,-8,2,
O=C(CSc1nc(-c2ccc(Cl)cc2)cs1)Nc1cccc([N+](=O)[O-])c1,-13,63%,.,83,16,
Cc1ccc2oc(-c3ccccc3C(=O)O)cc(=O)c2c1,-40,-3%,-4.9,-5,4,
CC(C)(O)CC[C@H](OC(=O)c1ccccc1)[C@](C)(O)[C@H]1CC[C@@]2(O)C3=CC(=O)[C@@H]4C[C@@H](O)[C@H](O)C[C@]4(C)C3CC[C@]12C (stereo partly drawn),.,.,-3.2,?,.,
CSc1ccc(CN(C)C(=O)CSCC(=O)Nc2ccc(C)cc2)cc1,.,.,-3.6,6,.,
O=C(N/N=C/c1ccsc1)c1ccccn1,.,30%,-5.6,99,4,
CC(=O)OCCNC(=O)Cn1cnc2c1c(=O)n(C)c(=O)n2C,-45,-2%,-1.0,-4,3,
COc1ccc(C2/C(=C(/O)c3ccc(F)cc3)C(=O)C(=O)N2c2ccccn2)cc1OC (stereo not drawn),.,.,-1.4,4,.,
CC(C)(C)C1CCc2c(sc(N)c2C(N)=O)C1 (stereo not drawn),-11,-4%,3.4,-8,15,
Cc1ccccc1C1CCCN(C(=O)c2cc(COc3c(F)cccc3F)on2)C1 (stereo not drawn),.,15%,12,1,9,
O=C(CC(c1ccccc1)C1CCCCC1=O)c1ccco1 (stereo not drawn),-24,8%,-1.9,-1,8,
CCN(CC)c1ccc(/C=C(\C#N)C(=O)NCc2ccccc2)cc1,-5,5%,-54,2,-13,
Cc1cc(OCC(=O)N(C)Cc2ccccc2)ccc1Cl,.,.,2.5,3,.,
COCCNC(=O)c1cc(-c2ccccc2OC)on1,-17,0%,0.8,-2,-7,Arbovirus anti repeat=-14
CCCCNC(=S)NNC(=O)c1c(Cl)c(C)nn1C,-35,-2%,1.0,-1,5,
CCCCC(CC)CNC(=O)Cn1c(=S)[nH]c2ncccc2c1=O (stereo not drawn),.,1%,-1.7,-2,1,
CCOc1ccccc1C(=O)NCC(=O)OCC(=O)N1C(C)CCCC1C (stereo not drawn),-42,-8%,2.3,-12,1,
O=C(NCC(c1cccs1)N1CCOCC1)c1ccc(Cl)c([N+](=O)[O-])c1 (stereo not drawn),-21,-10%,-0.9,1,-2,
CCOC(=O)CNc1c(-c2ccc(OC)cc2)nc2ccc(Cl)cn12,-13,-11%,-6.2,3,0,
O=C(NCCN1CCOCC1)N1c2ccccc2Sc2ccccc21,-30,0%,5.3,0,-1,
CC1CN(C(=O)Nc2ccc(F)cc2)C2(CCCCCC2)O1 (stereo not drawn),.,2%,1.8,5,0,
CC(C)NC(=O)CSc1nnc2sc3ccccc3n12,-40,-3%,-2.0,1,3,
CC12CCCCC1(O)[N+](=O)C1=C(CCCC1)N2[O-] (stereo not drawn),-34,1%,1.0,-5,6,
CCCCCCCCCNC(=O)[C@H](NC(=O)COc1ccccc1)[C@@H]1NC(C(=O)OC)C(C)(C)S1 (stereo partly drawn),.,-10%,0.3,-3,.,
Cc1cccc(CN2CCc3c([nH]c4ccccc34)C2C(C)(C)C)n1 (stereo not drawn),.,.,-2.7,6,.,
CC(NC(=S)Nc1ccccc1)C(c1cccs1)N1CCOCC1 (stereo not drawn),.,-3%,-1.2,0,.,
COC(=O)CSc1nnc(CCc2ccccc2)n1C,.,.,-5.6,8,.,

# Not all compounds are listed, so the mix of outcomes need not match the whole.
